Assay outcomes deposited in PubChem BioAssay by National Center for Advancing Translational Sciences (NCATS).
2A StopGo – lowers the luciferase signal of an FMDV 2A StopGo reporter; human cells with a luciferase reporter of 2A StopGo recoding; control for the full effect not named in the record; Potency, µM (doses to about 57.9 µM), without a hit: at the top dose signal change, negative = less light; 1.2% of 410,000 active; AID 1159524; active = well fitted falling curve with a large enough effect; inconclusive = small, poorly fitted or top-dose-only effect; inactive = no such curve, though single readings can be large or run the other way; tested in HEK293T cells; further: on the % scale 0 is the no-effect control and ±100 the full control effect; nearly all actives have a fitted effect of over 45% in size; luciferase light after 4 h
Cruzain inh noDet – cruzain (T. cruzi) inhibition without detergent; purified cruzain, Z-FR-AMC fluorescence, no detergent; P25779; AID 1476; Potency, µM, for the others: max response, negative = inhibition, hits mostly inhibitors; 2.3% of 200,000 active;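 further: plate controls were enzyme without inhibitor for no effect and buffer without enzyme for full effect; nearly all actives have a fitted effect of over 40% in size; top concentration of the series not given in the record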
Target sequence (P25779 123-467 limits assumed): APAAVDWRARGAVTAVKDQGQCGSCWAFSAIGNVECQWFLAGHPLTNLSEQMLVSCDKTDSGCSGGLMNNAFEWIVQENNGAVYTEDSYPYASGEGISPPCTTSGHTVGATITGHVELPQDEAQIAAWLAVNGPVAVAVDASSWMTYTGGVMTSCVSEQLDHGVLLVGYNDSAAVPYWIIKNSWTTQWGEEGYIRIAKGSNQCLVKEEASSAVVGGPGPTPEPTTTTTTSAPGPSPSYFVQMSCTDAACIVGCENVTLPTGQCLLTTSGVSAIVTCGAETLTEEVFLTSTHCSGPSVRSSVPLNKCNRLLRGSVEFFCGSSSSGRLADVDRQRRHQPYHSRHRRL
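Purified cruzain at 1.5 nM, pre-incubated 15 min with compound at room temperature in 100 mM sodium acetate pH 5.5, 5 mM DTT, 0.00005% Triton X-100. Reaction started with 2 uM Z-FR-AMC; AMC fluorescence increase over 60 s gives rate.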
RE007 growth inh – less growth of the S. pombe RE007 Vpr strain; Potency, µM (top dose mostly 92.2 µM), for inactives: top-dose activity change, negative = less growth; 0.21% of 360,000 active; S. pombe RE007 Vpr strain, BacTiter-Glo ATP luminescence, 24 h; control for the full effect not named in the record; active = well fitted falling curve with a large enough effect; inconclusive = small, poorly fitted or top-dose-only effect; inactive = no such curve, though single readings can be large or run the other way;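 further: on the % scale 0 is the no-effect control and ±100 the full control effect; nearly all actives have a fitted effect of over 50% in size; the assay follows cell death caused by Vpr and the record does not say whether a fall means rescue or toxicity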
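Fission yeast RE007 carrying one integrated HIV-1 vpr copy, seeded at OD 0.01 in PMG+AL medium with 23 nL pinned compound. Grown 24 h at 30 degrees; viability read by BacTiter-Glo luminescence after 5 min.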
Cruzain Triton – inhibitors of Trypanosoma cruzi cruzain with detergent | P25779 | Potency, µM, for the others: max response, negative = inhibition, usual class: inhibitors | 0.43% of 200,000 active | purified cruzain, Z-FR-AMC fluorescence, 0.01% Triton;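 further: plate controls were neutral wells for no effect and buffer without enzyme for full effect; nearly all actives have a fitted effect of over 40% in size; top concentration of the series not given in the record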
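Cruzain (1.5 nM) preincubated 15 min at RT with compound in 100 mM sodium acetate pH 5.5, 5 mM DTT, 0.01% Triton X-100. Reaction started with 2 uM Z-FR-AMC; AMC fluorescence (ex 360/em 450 nm) change over 60 s gave rate.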
SARS PLP yeast – inhibitors of SARS-CoV papain-like protease in yeast. AID 485353. Potency, µM (series often up to 32.9 µM), inactives show top-dose activity, positive = growth rescue. S. cerevisiae expressing SARS-CoV PLpro, growth rescue; control for the full effect not named in the record. 0.19% of 330,000 active; active means well fitted rising curve with a large enough effect; inconclusive means small, poorly fitted or top-dose-only effect; inactive means no such curve, though single readings can be large or run the other way; further: 0% is about no effect; nearly all actives have a fitted effect of over 55% in size; growth read by luminescence after 48 h
MARV entry inh – blocks Marburg virus binding to or entry into cells; Marburg virus pseudotyped entry inhibition, cell reporter; control for the full effect not named in the record; about a third of the inactives were read at about 46 µM; Potency, µM (series often up to 37.8 µM), inactives show top-dose activity change, negative = inhibition, most hits filed as inhibitors; 1.8% of 300,000 active; AID 540276; active = well fitted inhibition curve with a large enough effect; inconclusive = small, poorly fitted or top-dose-only effect, or effect the other way; inactive = flat fitted curve, though single readings scatter; tested in HEK293 cells; about a fifth of its hits are not listed in these tables; further: on the % scale 0 is the no-effect control and ±100 the full control effect; luciferase read-out
NS1 inh – blocks influenza NS1 protein function; S. cerevisiae slowed by influenza A NS1, growth recovery by OD600; Potency, µM (top dose mostly 46.1 µM), without a hit: top-dose activity, positive = more growth; 0.4% of 270,000 active; active means well fitted rising curve with a large enough effect; inconclusive means small, poorly fitted or top-dose-only effect; inactive means no such curve, though single readings can be large or run the other way; further: nearly all actives have a fitted effect of over 50% in size
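Read-out: OD600 growth recovery of NS1-expressing budding yeast. Cells grown overnight at 30C in -URA glucose medium, washed, resuspended and diluted 1:100 in 2% galactose assay medium, pH 6.0. Same strain lacking NS1 served as positive control.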
Lassa entry inh – Lassa virus entry inhibition; Lassa virus pseudotype entry inhibition, cell reporter; control for the full effect not named in the record; Potency, µM (titrated, usually from 37.9 µM), inactives show at the top dose activity change, negative = inhibition, most hits filed as inhibitors; 1.2% of 300,000 active; AID 540256; active means well fitted inhibition curve with a large enough effect; inconclusive means small, poorly fitted or top-dose-only effect, or effect the other way; inactive means flat fitted curve, though single readings scatter; tested in HEK293 cells; further: on the % scale 0 is the no-effect control and ±100 the full control effect; nearly all actives have a fitted effect of over 50% in size; luciferase read-out
Active calls of the source: *; ? = inconclusive; . = no result given; & = joins results of further samples; [ ] = remark or other dose. Unless noted, the call rests on the fitted dose curve; in most records, active means well fitted curve in the direction sought with a large enough effect; inconclusive means small, poorly fitted or top-dose-only effect, or another doubt; inactive means no such curve, though single readings can be large; an effect the other way counts as inactive or inconclusive. Potency means the concentration at half of the fitted maximal effect. Rows are unselected, and some 4.7% of all compounds hit somewhere here.

structure	2A StopGo	Cruzain inh noDet	RE007 growth inh	Cruzain Triton	SARS PLP yeast	MARV entry inh	NS1 inh	Lassa entry inh
COC(=O)c1cccc(-n2nnnc2SCC(=O)Nc2cc(C)on2)c1	-2%	-3%	-1%	0.4%	-5%	11%	0%	8%
NCCCC[C@H]1CNC(=O)C(=O)N1CCc1cc(C(F)(F)F)cc(C(F)(F)F)c1	-11%	.	4%	.	0%	.	2%	.
CCc1noc(C)c1C(=O)N(CCOC)c1c(N)n(CC(C)C)c(=O)[nH]c1=O	-3%	.	8%	.	?	-2%[46.1 µM]	5%	2%[46.1 µM]
CC(=O)NCCCCCCNC(C)=O	-21%	-4%	0%[18.4 µM]	5.2%	0%&3%	0%&0%&0%&0%	11%	-4%
CCOC(=O)C1=NN(c2ccccc2)C2C(=O)N(c3ccccc3OC)C(=O)C12 (stereo not given)	-19%	.	1%	.	1%	.	-10%	.
O=C(c1ccccc1)N1CCOC(O)(c2ccccc2)C1c1ccccc1 (stereo not given)	18%	.	64%	.	.	-4%	.	23%[46.1 µM]
CCOC(=O)C1=C(N)n2c(s/c(=C/c3ccco3)c2=O)=C(C(=O)OC)C1c1ccco1 (stereo not given)	-14%	13µM*	-12%	-2.3%	-4%	?	?	?
CNC(=O)NC(=O)C(c1ccccc1)N(C)CC1COc2ccccc2O1 (stereo not given)	-20%	.	-10%	.	-15%	-27%[46.1 µM]	-4%	6%[46.1 µM]
CC(=Nc1ccc(C)cc1)c1sc2ccccc2c1O	.	-14%	-21%	-7.3%	-25%	?	8%	?
CC1(C)CC(=O)C(Sc2nnc(-c3ccc(NS(C)(=O)=O)cc3)n2Cc2ccco2)C(=O)C1	.	-11%	3%	3.5%	-1%	26%	1%	1%
Nc1nc(F)nc2c1ncn2[C@@H]1O[C@H](CO)[C@@H](O)[C@@H]1O	-18%	-3%	-2%	4.2%	10%	2%	-2%	?
COc1ccc(/C=N/NC(=O)c2ccc3c(c2)OCO3)cc1	54%[activator]	.	10%	.	1%	.	-6%	.
CN(C)/C=C/C(=O)c1ccc([N+](=O)[O-])c(CS(=O)(=O)c2ccccc2)c1	-8%	.	7%	.	0%	-2%[46.1 µM]	15%	9%[46.1 µM]
O=C(CSc1ccccc1)N1CCN(S(=O)(=O)c2ccccc2)CC1	-14%	.	-6%	.	-1%	12%	3%	2%
O=C1/C(=C/c2ccccc2)Nc2ccccc21	?	-11%	?	-4.7%	-22%	-20%	-116%	-1%
COc1cccc(OC)c1C(=O)N1CC(C)OC(C)C1 (stereo not given)	20%	-8%	13%	8.5%	6%	12%	2%	1%
Cc1cc(C)nc(NC(=NCc2ccc3c(c2)OCO3)NC(=O)Nc2ccccc2)n1	-13%	?	-12%	5.5%	.	?	7%	-16%
Cc1cc(C)c(OCC(=O)OCC(=O)NCC2CCCCC2)c(C)c1	-21%	.	-15%	.	9%	-7%	.	-3%
Cc1ccc(N(CC(=O)NC2CCCCC2)C(=O)c2ccc(C)s2)cc1	.	-13%	7%	-1.5%	-1%	?	-4%	13%
Oc1ccc(Nc2ccnc3cc(Cl)ccc23)cc1	24%	.	-11%	.	1%	?	4%	-12%[46.1 µM]
O=C1c2cccnc2Oc2ccc(Cl)cc2N1Cc1ccc(F)cc1	?	4%	-1%	-7.9%	3%	-3%	-2%	?
O=S1(=O)C=CC(N2CCOCC2)C1 (stereo not given)	0%	-4%	0%	-0.9%	-4%	-1%[46.1 µM]	4%	7%
Cc1nc2ccc(S(=O)(=O)N(C)CC(=O)NC(C)c3ccccc3)cc2s1 (stereo not given)	-2%	.	-2%	.	0%	26%[46.1 µM]	-10%	-5%[46.1 µM]
Cc1cc(C)c(C(=O)/C=C/c2ccc(C(C)C)cc2)c(=O)[nH]1	32µM*	0%	-4%	-2.6%	-8%	?	-65%	?
CN(C)S(=O)(=O)c1ccc(C(=O)NCCSc2ccc(Br)cc2)cc1	0%	7%	10%	-1.7%	2%	-24%	9%	?
O=C(Cc1ccccc1)NCCS(=O)(=O)N1CCN(c2cccc(Cl)c2)CC1	-1%	.	2%	.	-1%	-1%	.	2%
COc1ccc(N=C2NC(=O)/C(=C/C=C/c3ccccc3)S2)cc1	-1%	.	5%	.	-4%	-9%	5%	1µM*
CCCCN(C(=O)c1ccc(N2CCCC2=O)cc1)c1c(N)n(CCCC)c(=O)[nH]c1=O	5%	.	-9%	.	2%	18%	.	-15%
COc1cccc2c1OC1(C)CC2NC(=O)N1c1cccc(C(=O)N2CCN(c3ccccn3)CC2)c1 (stereo not given)	-17%	6%	3%	0.7%	.	-21%[46.1 µM]	-13%	-15%
Cc1ccc([C@@H]2[C@@H]3C(=O)N(c4ccccc4)C(=O)[C@@H]3[C@]3(Cc4ccccc4)C(=O)N(CC4CC4)CC(=O)N23)o1	0%	.	7%	.	-6%	.	5%	.
CCOc1cc(CNCCCN2CCOCC2)ccc1OCC(=O)Nc1cccc2ccccc12	5%	1%	2%	2.6%	-3%	?	-1%	15µM*
COc1ccc(S(=O)(=O)N2CCOCC2)cc1NC(=O)COc1ccc(C(C)=O)cc1OC	-9%	.	1%	.	-9%	-6%	.	21%
CSC1=NC(C)(C)C=C(/C=C/c2ccc(Cl)cc2Cl)N1	?	.	-13%	.	1%	?	.	-27%
Clc1cccc(Cl)c1Cn1cnc2c(N3CCCCCC3)ncnc21	.	10%	8%	-2.7%	-2%	4.6µM*	-11%	7.3µM*
CCN(CC)S(=O)(=O)c1ccc2c(c1)nc(-c1ccccn1)n2C	27%	.	3%	.	-5%	0%[46.1 µM]	-4%	.
CC(C)NC(=O)C1COc2ccccc2O1 (stereo not given)	1%	.	8%	.	0%	.	5%	.
Cc1nn(CC(=O)N2CCC3(CC2)OCCO3)c(=O)c2cc3ccccc3n12	-18%	.	4%	.	-4%	.	-3%	.
CCCCC(=O)NC(c1ccc(OC)c(OC)c1)c1c(O)ccc2ccccc12 (stereo not given)	5%	?	-15%	-4.1%	1%	-20%	18%	?
O=C(NCc1ccco1)c1ccccc1NS(=O)(=O)c1cccs1	22%	-2%	9%	-8.6%	-14%	12%	-15%	12%
COc1ccc(OC)c(NC(=O)c2cc(=O)c3c(C)cc(C)cc3o2)c1	-2%	-15%	.	-0.7%	.	?	.	8%[46.1 µM]
NC(=O)CSc1nnc(Cc2cccs2)n1C1CCCCC1	4%	-7%	-17%	4.9%	4%	4%	2%	-9%
Cc1nn(C(=O)CCC(=O)NCc2cccc(F)c2)c2ccccc12	-11%	.	5%	.	6%	.	2%	.
COc1ccc(CCNC(=O)c2cc3c(=O)n4cccc(C)c4nc3s2)cc1OC	-10%	.	?	.	0%	2%[46.1 µM]	0%	?
CSc1ccc(/C=N/N2CCN(Cc3ccccc3Cl)CC2)cc1	1%	.	-26%	.	-1%	-4%[46.1 µM]	.	.
O=C1c2ccccc2C2NC(=O)C3(CCCCC3)N12 (stereo not given)	2%	1%	-2%	4.6%	-5%	16%	0%	7%
Cc1ccsc1C(=O)OCC(=O)NCC1CCCO1 (stereo not given)	21%	-6%	1%	2.1%	1%	18%	-8%	25%
O=C(Nc1cccc(C(=O)Nc2ccc(Cl)cn2)c1)c1ccccc1	2%	.	19%	.	-1%	.	2%	.
CC(=O)O[C@H]1C2OC(=O)C(C)=C2[C@@H]2OC(=O)[C@]3(CCC4OC41C)OC23 (stereo not given in full)	?	-4%	-6%	0.9%	-9%	13%	7%	6%
COc1ccc(-c2nn(CCC(=O)O)cc2/C=C2\SC(N)=NC2=O)cc1	-13%	13%	-9%	-7.1%	11%	-18%	4%	?
O=C(Nc1ccc(C(=O)O)cc1)/C(=C\C=C\c1ccccc1)NC(=O)c1ccc(Br)cc1	-27%	.	-14%	.	0%	15%[46.1 µM]	.	-4%[46.1 µM]

Other records:
structure	2A StopGo	Cruzain inh noDet	RE007 growth inh	Cruzain Triton	SARS PLP yeast	MARV entry inh	NS1 inh	Lassa entry inh
NC(=O)CSc1nnc2n(-c3ccccc3)c(=O)c3c4c(sc3n12)CCCCC4	-18%	?	3%	-1.5%	3%	2%&2%	-7%	?
O=C1CC(N2CCN(Cc3ccc4c(c3)OCO4)CC2)C(=O)N1CCc1ccccc1 (stereo not given)	?	-12%	-8%	3.9%	0%	-29%	2%	-21%
COc1ccc(C2C(C(=O)Nc3cccc(OC)c3)c3ccccc3C(=O)N2C)cc1 (stereo not given)	-22%	.	-5%	.	3%	?	.	-20%
CSc1nc(Nc2ccc(F)cc2)cc(-c2ccccc2)n1	-8%	-3%	.	-21%	.	?	.	-7%[46.1 µM]
Cc1ccc(NC(=O)C2CCCN2S(=O)(=O)c2cccc3cccnc23)cc1 (stereo not given)	7%	7%	.	-0.1%	.	-3%[46.1 µM]	.	.
COC(=O)C1=C(C)N(Cc2ccco2)C(=O)/C1=C\c1ccc([N+](=O)[O-])cc1	22µM*	.	5%	.	-6%	?	0%	?
CCN(C(=O)C(C)N1C(=O)/C(=C/c2cccs2)SC1=S)C1CCS(=O)(=O)C1 (stereo not given)	-19%	.	-9%	.	?	.	10%	.
CCCCN(C)C(=O)c1nc2ccccn2c1CNCCCn1nnc2ccccc21	-10%	.	-16%	.	1%	0%[46.1 µM]	-5%	20%[46.1 µM]
O=C(CCc1ccccc1)NN1C(=O)C2C3C=CC(C3)C2C1=O (stereo not given)	-24%	.	2%	.	0%	-2%[46.1 µM]	6%	-1%[46.1 µM]
O=C(O)/C(=C\c1cccs1)c1ccccc1	-9%	.	-3%	.	0%	6%	2%	8%
Cc1c(C=C(C#N)c2ccc([N+](=O)[O-])cc2)c(=O)n(-c2ccccc2)n1C	-7%	.	-14%	.	.	5%	.	0%
CS(=O)(=O)N1CCC(C(=O)NNC(=O)Nc2ccc(F)c(Cl)c2)CC1	-15%	.	6%	.	-4%	20%	2%	-5%
